Assay outcomes as filed in PubChem BioAssay.
Mtb H37Rv – Confirmatory growth inhibition assay against Mycobacterium tuberculosis H37Rv, potency (AID 1949); most inactive calls were filed without a number and no value below 0 was filed; inhibition, % at 10 µg/mL; hits with a dose series show IC50 in µg/mL; hit rate 1.6% among 100,000;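 active means confirmed in a dose series; inconclusive means about 50% or more but not retested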;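 further: bacteria grown 7 days with compound before Alamar blue readout; 0% = untreated bacteria and 100% = reference antibiotic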
Starred values were filed as active, the others as inactive; i = inactive; u = inconclusive. The list is partial, so the mix of outcomes need not match the whole.

Structure,Mtb H37Rv
CCC(=O)Oc1cccc(C(=O)Nc2cccc(NC(=O)c3ccco3)c2)c1,4%
Cc1ccc(NC(=O)c2ccccc2NC(=O)c2ccc(Cl)cc2Cl)cc1C,i
CCC(C)NC(=S)Nc1ccc(OC)cc1 (stereo not given),4%
OC12CC3CC(C1)C(NCc1ccccc1)C(C3)C2 (stereo not given),i
Cc1cccc(C)c1NC(=O)Cn1nnc(-c2ccc(OCc3ccccc3F)cc2)n1,i
Cc1c(CCC(=O)O)c(=O)oc2cc(OCc3ccc(Cl)c(Cl)c3)ccc12,i
COc1ccc(OC)c(NC(=S)Nc2ccc(I)cc2)c1,i
O=C(CNS(=O)(=O)c1ccccc1)N1CCC(Cc2ccccc2)CC1,i
CCN(CC)CC(=O)NCc1ccccc1,i
Cc1ccc(C)c(-c2cc(C(=O)N3CCCC3)c3ccccc3n2)c1,i
CC(Oc1cccc(NC(=O)c2ccc(Br)cc2)c1)C(=O)c1cccc(Cl)c1 (stereo not given),i
Cc1ccc(NC(=O)Cn2cc(C=O)c3ccccc32)cc1[N+](=O)[O-],40%
CCCC(=O)N1c2ccccc2NC2=C(C(=O)CCC2)C1c1ccco1 (stereo not given),i
CN1CCN(c2oc(COc3ccccc3F)nc2C#N)CC1,i
CCOC(=O)c1ccc(NC(=S)NNC(=O)c2ccccn2)cc1,i
Cc1ccc(S(=O)(=O)Nc2ccc(S(=O)(=O)Nc3ccccc3Cl)cc2)cc1,i
COc1ccc2c([N+](=O)[O-])c(N3CCCC3)[nH]c2c1,9%
CCc1cc2c(-c3ccccc3)cc(=O)oc2cc1OCC(=O)c1cccc(OC)c1,i
CN(C1=NS(=O)(=O)c2ccccc21)c1ccc(OC(=O)c2ccco2)cc1,i
CCOC(=O)c1c(NC(=S)Nc2ccccc2OC)sc2c1CCC2,i
CCn1c(SCC(=O)Nc2c(C)cccc2C)nnc1C(C)NC(=O)c1ccccc1Br (stereo not given),i
O=C(O)c1cccc(NC(=S)NC(=O)c2ccco2)c1,i
O=C(CN(c1ccccc1)S(=O)(=O)c1ccccc1)N1CCCC1,i
COc1cc(/C=C2/C(=O)N(c3ccc(Cl)c(C(=O)O)c3)N=C2C)cc2sc(=O)oc12,4%
COc1cc(-c2nnc(SCC(=O)Nc3ccc(Br)cc3)n2-c2ccccc2)cc(OC)c1OC,i

The results go on:
Structure,Mtb H37Rv
O=C(O)COc1ccc(Cc2ccccc2)cc1,i
CCCCOc1ccc(NC2=NC3(CCCCC3)N=C(N)N2)cc1,12µg/mL*
COc1cc2ccccc2cc1C(=O)Nc1cccc(NC(=O)C(C)C)c1,i
CN(Cc1ccccc1)C(=O)c1ccc(I)cc1,4%
NC(=O)C1CCN(S(=O)(=O)c2ccc3oc(=O)ccc3c2)CC1,i
Cc1cc(C)c(S(=O)(=O)Nc2ccc(S(=O)(=O)Nc3ccc(Cl)cc3)cc2)c(C)c1,i
C=CCNC(=O)c1cc(I)ccc1NC(=O)c1ccccc1Cl,5%
CCOc1cccc2cc(C(=O)Nc3c(C)n(C)n(-c4ccccc4)c3=O)c(=O)oc12,i
CC(NC(=O)NC12CC3CC(CC(C3)C1)C2)c1ccncc1 (stereo not given),2%
CN1CCN(c2nn3c(=O)c4c(-c5ccc(Cl)cc5)csc4nc3c3ccccc23)CC1,1%
O=S(=O)(Nc1ccccc1F)c1ccc(Cl)c(C(F)(F)F)c1,i
O=Cc1ccc(OC(=O)c2ccccc2)cc1,1%
COc1cc(NC(=O)c2cnn3c(C(F)F)cc(C4CC4)nc23)c(OC)cc1Cl,i
CN(C)c1ccc(CNc2ccc(Br)cn2)cc1,i
CC1(C(=O)O)NC(c2ccccc2O)C2C(=O)N(Cc3ccccc3)C(=O)C21 (stereo not given),i
CCc1c(C)sc(NC(=S)Nc2ccsc2C(=O)OC)c1C(=O)OC,i
Cc1ccccc1C(=O)Nc1sc2c(c1C(=O)NCCCN(C)C)CCCC2,i
CCOc1ccc(-n2c(SCC(=O)Nc3ccccc3C(F)(F)F)nnc2-c2ccncc2)cc1,i
CC1=C(C(=O)Nc2ccccc2F)C(c2ccco2)C(C#N)=C(SCC(=O)Nc2ccc(Br)cc2)N1 (stereo not given),49%
O=C(NCCCNC(=O)c1ccc(Cl)c(Cl)c1)c1ccc(Cl)c(Cl)c1,i
O=c1c([N+](=O)[O-])c(N2CCOCC2)c2ccccc2n1Cc1ccccc1,i
COc1ccc(Br)cc1C(=O)Nc1ccccc1OC(F)F,i
COc1cc(C=O)cc(I)c1OCC(=O)Nc1cc(C)cc(C)c1,i
Cc1ccc(CC(=O)Nc2ccncc2)cc1,i
O=[N+]([O-])c1cc(C(F)(F)F)ccc1NCCO,i

Additional structures.
Structure,Mtb H37Rv
CC(C)OCCCNC(=O)COc1cc(Cl)c(Cl)cc1Cl,4%
O=C(O)c1cc(S(=O)(=O)Nc2cccc(Cl)c2)ccc1O,i
COc1ccc(CCNC(=O)CSc2nc3ccccc3c(=O)n2-c2cccc(C)c2)cc1OC,i
CC(NC(=S)NCCc1ccc(S(N)(=O)=O)cc1)C12CC3CC(CC(C3)C1)C2 (stereo not given),1%
COc1ccc(-c2n[nH]c(=S)n2N=Cc2ccc(C(F)(F)F)cc2)cc1,i
CCOc1cc(C(=O)NCc2ccccc2)ccc1OCc1ccccc1,i
COc1ccccc1N1C(=O)NC(=O)/C(=C/c2cccn2C)C1=O,i
CCC(C)c1ccc(OCC(=O)Nc2cccc(NC(=O)c3ccco3)c2)cc1 (stereo not given),i
O=c1c2ccccc2ncn1CCOCCOc1ccc(Cl)c(Cl)c1,i
CC(=O)C1=C(C)NC(SCc2ccccc2F)=C(C#N)C1c1ccccc1[N+](=O)[O-] (stereo not given),3%
Cc1ccc(-c2nn(C)c(=O)c3ccccc23)cc1CO,i
Cc1cc([N+](=O)[O-])ccc1NC(=O)CSc1nnc(CNC(=O)c2ccccc2)n1C,1%
CCOC(=O)CNC(=O)c1cc(C)on1,i
O=C(CSc1ccc(F)cc1)Nc1ccc2c(c1)OCCO2,7µg/mL*
Cc1ccc(-c2ccc(S(=O)(=O)N3CCCCCC3)cc2)cc1,3%
Cc1cc(OCC(=O)NCCCc2ccccc2)ccc1Cl,3%
Cn1c(-c2ccc(Cl)cc2)nc2ccccc21,8%
CC(=O)Oc1ccc(N(C(C)=O)S(=O)(=O)c2cc([N+](=O)[O-])ccc2C)cc1,i
O=C(c1ccc(Br)o1)N1CCN(c2cccc(C(F)(F)F)c2)CC1,i
Clc1cc(Br)ccc1OCCOCCn1ccnc1,u
COc1cc(C(=O)Oc2ccc3c4c(c(=O)oc3c2C)CCC4)cc(OC)c1OC,i
CSc1cccc(NS(=O)(=O)c2ccccc2)c1,i
O=C(NCC1CCCO1)C(=O)Nc1ccc(F)cc1F (stereo not given),i
CC(C)C(NC(=O)c1ccccc1)c1nnc(SCC(=O)Nc2c(F)cc(F)cc2Br)n1C (stereo not given),i
COc1ccc(OCCNC(=O)c2ccc(I)cc2)cc1,i

(more compounds)
Structure,Mtb H37Rv
O=C(Cn1nnc2sc3c(c2c1=O)CCCC3)NC1CCCCC1,i
CN1CCN(Cc2c(O)ccc3c4c(c(=O)oc23)CCCC4)CC1,6%
Cc1ccc(S(=O)(=O)N(CC(=O)Nc2ccccc2C)C2CCCCC2)cc1,2%
COc1ccc(N2CCN(C(=S)NC(C)C34CC5CC(CC(C5)C3)C4)CC2)cc1 (stereo not given),i
O=C(Nc1ncnc2sc3c(c12)CCCC3)c1ccccc1Br,i
O=C(CCCN1C(=O)c2ccccc2C1=O)N1CCc2ccccc2C1,i
COc1ccc(NC(=S)NCc2ccco2)c(OC)c1,i
COc1ccc(CNC(=O)c2cnn3c(C(F)F)cc(-c4ccc(C)cc4)nc23)cc1,i
N#Cc1c(N2C(=O)C3CC=C(Cl)CC3C2=O)sc2c1CCCC2 (stereo not given),i
O=C(OCc1ccc(S(=O)(=O)Cc2ccccc2)cc1)c1ccc(F)cc1,i
COc1ccccc1CNC(=O)COc1ccc(C(C)C)cc1Br,15%
O=[N+]([O-])c1cn(Cc2ccccc2)nn1,5%
O=C(C1CCCN(S(=O)(=O)c2ccccc2[N+](=O)[O-])C1)N1CCCCC1 (stereo not given),i
CCn1cc(C(=O)O)c(=O)c2cnc(N3CCN(C(=S)NC(=O)c4c(-c5ccccc5)noc4C)CC3)nc21,i
Cc1nc(NC(=O)c2cccnc2)ccc1Br,i
Brc1ccccc1OCCn1ccnc1,i
COC(=O)C1=CN(Cc2cccs2)C=C(C(=O)OC)C1c1cc(OC)c(OC)c(OC)c1,i
O=c1c(Oc2c(F)cccc2Cl)c(C(F)(F)F)oc2cc(O)ccc12,i
Cc1nc(/N=C(\NC(=O)c2ccccc2)Nc2ccccc2)[nH]c(=O)c1C,i
COc1ccc(C(=O)NCCC2=CCCCC2)cc1OC,i
CCOC(=O)c1ccc(N2C(=O)CC(Sc3ncccn3)C2=O)cc1 (stereo not given),i
NC(=O)c1ccc(NC(=O)Nc2ccc(F)c(Cl)c2)cc1,i
N=C1C(c2nc3ccccc3s2)=C(O)CN1Cc1ccccc1,i
O=C(C1CCCO1)N1CCN(C(=S)Nc2ccccc2C(F)(F)F)CC1 (stereo not given),1%
O=Cc1cc(Cl)ccc1OCC(=O)Nc1ccc(F)cc1,6%

Six structures already listed, arranged by formula weight, ascending.
Structure,Mtb H37Rv
Brc1ccccc1OCCn1ccnc1,i
COc1ccc(C(=O)NCCC2=CCCCC2)cc1OC,i
NC(=O)c1ccc(NC(=O)Nc2ccc(F)c(Cl)c2)cc1,i
N=C1C(c2nc3ccccc3s2)=C(O)CN1Cc1ccccc1,i
COc1ccccc1CNC(=O)COc1ccc(C(C)C)cc1Br,15%
Cc1ccc(S(=O)(=O)N(CC(=O)Nc2ccccc2C)C2CCCCC2)cc1,2%

More entries follow:
Structure,Mtb H37Rv
O=C(NC1CCCCC1)N1CCN(c2ccccc2Cl)CC1,i
N/C(=N\c1nc2c(c(=O)[nH]1)CCCC2)Nc1ccc2c(c1)OCCO2,i
CCCCNS(=O)(=O)c1ccc(NC(=O)CCCc2ccccc2)cc1,i
O=S(=O)(c1ccc(NCc2ccccc2)cc1)N1CCOCC1,i
Cc1cccc(-c2nnc(SCC(=O)Nc3c(C)cc(I)cc3C)o2)c1,i
C=CCc1ccccc1OCCCSc1nc(C)cc(=O)[nH]1,6%
Cc1ccc2ccccc2c1Cn1c(-n2ccnc2)nc2c1c(=O)n(C)c(=O)n2C,0%
CC(NS(=O)(=O)c1ccc(OCC(=O)N2CCOCC2)cc1)c1ccccc1 (stereo not given),i
O=C1CC(Sc2nc3ccccc3s2)C(=O)N1c1ccccc1C(F)(F)F (stereo not given),i
N#CC1=C(N)Oc2n[nH]c(C(F)(F)F)c2C1c1ccccc1OCc1ccccc1Cl (stereo not given),i
C=CCSc1nc2c(c(=O)[nH]1)C(c1ccc(C)s1)C1=C(CC(C)(C)CC1=O)N2 (stereo not given),i
COc1ccccc1NC(=S)NCc1ccc(F)cc1,i
CC(=O)Nc1cccc(OCC(=O)NS(=O)(=O)c2ccc(C)cc2)c1,i
C=CCn1c2ccccc2c2nnc(SCC(=O)Nc3cc(C)on3)nc21,i
COc1cc(C(C)=O)ccc1OCC(O)Cn1nc(C)c(Br)c1C (stereo not given),3%
COC(=O)c1c(NC(=S)Nc2ccc(F)cc2)sc2c1CCC2,i
CC(=O)Nc1ccc(S(=O)(=O)NCCSCc2c(F)cccc2Cl)cc1,i
O=S(=O)(N1CCCCC1)N1CCN(CC(O)COc2ccc(-c3ccccc3)cc2)CC1 (stereo not given),6%
COc1ccccc1NC(=O)c1ccc(COc2ccccc2Cl)o1,i
S=C(NCCc1cnc[nH]1)NC1CCCC1,0%
CC(=O)C(C)c1nc(N)nc(Nc2ccccc2)n1 (stereo not given),0%
CCOC(=O)COc1c(OC)cc(Cl)cc1C1NC(=O)NC(C)=C1C(C)=O (stereo not given),1%
CCOc1ccccc1CNCCc1ccccc1F,3%
CNC(=O)C1=C(C)NC(=O)NC1c1cccs1 (stereo not given),i
CC(C)CNC(=S)N1CCN(c2ccccc2)CC1,i

Next structures follow:
Structure,Mtb H37Rv
CCCOC(=O)c1c(-c2ccc(OC)c(OC)c2)csc1N,2%
COc1ccc(N(CC(=O)Nc2ccc(F)cc2F)S(C)(=O)=O)cc1Cl,i
CCCCOc1ccc(S(=O)(=O)N2CCN(c3ccc(C)c(C)c3)CC2)cc1,i
O=C1c2ccccc2C(=O)N1CN(Cc1ccc2c(c1)OCO2)CN1C(=O)c2ccccc2C1=O,i
CCOC(=O)C1(c2ccc(OC)cc2)CCOCC1,i
C=CCN(C(=O)N1c2ccccc2Sc2ccccc21)c1nnc(-c2ccc(Cl)cc2)s1,i
Cn1c(SCC(N)=O)nc2c(c1=O)C1(CCCCC1)Cc1ccccc1-2,i
Nc1nnc(SCC(=O)Nc2ccc(Br)cc2Cl)n1-c1ccccc1,i

Laid out differently: 4 of the compounds above
CCCCOc1ccc(S(=O)(=O)N2CCN(c3ccc(C)c(C)c3)CC2)cc1
  Mtb H37Rv: i
O=C1c2ccccc2C(=O)N1CN(Cc1ccc2c(c1)OCO2)CN1C(=O)c2ccccc2C1=O
  Mtb H37Rv: i
CCOC(=O)C1(c2ccc(OC)cc2)CCOCC1
  Mtb H37Rv: i
C=CCN(C(=O)N1c2ccccc2Sc2ccccc21)c1nnc(-c2ccc(Cl)cc2)s1
  Mtb H37Rv: i
